# Bioassay records: PubChem, National Center for Advancing Translational Sciences (NCATS)
# SARS PLpro yeast: qHTS of Yeast-based Assay for SARS-CoV PLP; S. cerevisiae expressing SARS-CoV PLpro, growth rescue; control for the full effect not named in the record; Potency, µM (doses to about 32.9 µM), without a hit: at the top dose activity, positive = growth rescue; 330,000 tested, 0.19% active; active means well fitted rising curve with a large enough effect; inconclusive means small, poorly fitted or top-dose-only effect; inactive means no such curve, though single readings can be large or run the other way; further: 0% is about no effect; nearly all actives have a fitted effect of over 55% in size; growth read by luminescence after 48 h
# NS1 inh: qHTS Assay for Inhibitors of Influenza NS1 Protein Function | S. cerevisiae slowed by influenza A NS1, growth recovery by OD600 | Potency, µM (top dose mostly 46.1 µM), without a hit: top-dose activity, positive = more growth | 270,000 tested, 0.4% active | AID 2326, 2010; active means well fitted rising curve with a large enough effect; inconclusive means small, poorly fitted or top-dose-only effect; inactive means no such curve, though single readings can be large or run the other way; further: nearly all actives have a fitted effect of over 50% in size
#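 OD600 was taken as the measure of yeast growth restored by compound in an NS1-expressing S. cerevisiae strain. Cells had been washed out of glucose medium and diluted 1:100 into galactose -URA medium, pH 6.0.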
# LASV entry inh: qHTS for Inhibitors of binding or entry into cells for Lassa Virus; Potency, µM (top dose mostly 37.9 µM), without a hit: top-dose activity change, negative = inhibition, hits mostly inhibitors; Lassa virus pseudotype entry inhibition, cell reporter; control for the full effect not named in the record; 300,000 tested, 1.2% active; active means well fitted inhibition curve with a large enough effect; inconclusive means small, poorly fitted or top-dose-only effect, or effect the other way; inactive means flat fitted curve, though single readings scatter; tested in HEK293 cells; further: on the % scale 0 is the no-effect control and ±100 the full control effect; nearly all actives have a fitted effect of over 50% in size; luciferase read-out
# Cruzain inh Det: qHTS Assay for Promiscuous and Specific Inhibitors of Cruzain (with detergent); 200,000 tested, 0.43% active; Potency, µM, for the others: max response, negative = inhibition, most hits filed as inhibitors; AID 1478, 2009; Cruzipain (Trypanosoma cruzi), P25779; purified cruzain, Z-FR-AMC fluorescence, 0.01% Triton;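 further: plate controls were neutral wells for no effect and buffer without enzyme for full effect; nearly all actives have a fitted effect of over 40% in size; top concentration of the series not given in the record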
# Target sequence (P25779 123-467 limits assumed): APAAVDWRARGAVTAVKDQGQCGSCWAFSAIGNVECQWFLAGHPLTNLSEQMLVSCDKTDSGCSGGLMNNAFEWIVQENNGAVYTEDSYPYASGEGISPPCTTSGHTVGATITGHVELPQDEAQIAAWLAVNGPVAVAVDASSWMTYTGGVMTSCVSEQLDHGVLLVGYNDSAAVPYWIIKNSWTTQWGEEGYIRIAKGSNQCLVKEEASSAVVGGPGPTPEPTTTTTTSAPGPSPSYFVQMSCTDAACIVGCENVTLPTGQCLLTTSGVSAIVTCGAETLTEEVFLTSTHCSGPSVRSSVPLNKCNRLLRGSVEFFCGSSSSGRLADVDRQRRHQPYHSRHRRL
#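 Read-out: AMC fluorescence (360 nm excitation, 450 nm emission), four reads over 2 min, first-to-third difference used. Conditions: cruzain 1.5 nM, Z-FR-AMC 2 uM, pH 5.5 acetate, 5 mM DTT, 0.01% Triton X-100.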
# Cruzain inh noDet: qHTS Assay for Promiscuous and Specific Inhibitors of Cruzain (without detergent); Cruzipain (Trypanosoma cruzi), P25779; purified cruzain, Z-FR-AMC fluorescence, no detergent; Potency, µM, without a hit: max response, negative = inhibition, hits mostly inhibitors; 200,000 tested, 2.3% active; AID 1476, 2009;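 further: plate controls were enzyme without inhibitor for no effect and buffer without enzyme for full effect; nearly all actives have a fitted effect of over 40% in size; top concentration of the series not given in the record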
#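 Purified cruzain at 1.5 nM, pre-incubated 15 min with compound at room temperature in 100 mM sodium acetate pH 5.5, 5 mM DTT, 0.00005% Triton X-100. Reaction started with 2 uM Z-FR-AMC; AMC fluorescence increase over 60 s gives rate.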
# StopGo reporter: High Throughput Screening for Foot and Mouth Disease Virus Antivirals; human cells with a luciferase reporter of 2A StopGo recoding; control for the full effect not named in the record; Potency, µM (doses to about 57.9 µM), without a hit: at the highest dose signal change, negative = less light; 410,000 tested, 1.2% active; AID 1159524, 2015; active = well fitted falling curve with a large enough effect; inconclusive = small, poorly fitted or top-dose-only effect; inactive = no such curve, though single readings can be large or run the other way; tested in HEK293T cells; further: on the % scale 0 is the no-effect control and ±100 the full control effect; nearly all actives have a fitted effect of over 45% in size; luciferase light after 4 h
# RE007 growth inh: qHTS Assay for Inhibitors of the HIV-1 protein Vpr; S. pombe RE007 Vpr strain, BacTiter-Glo ATP luminescence, 24 h; control for the full effect not named in the record; Potency, µM (titrated, usually from 92.2 µM), inactives show top-dose activity change, negative = less growth; 360,000 tested, 0.21% active; AID 651644, 2012; active = well fitted falling curve with a large enough effect; inconclusive = small, poorly fitted or top-dose-only effect; inactive = no such curve, though single readings can be large or run the other way;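 further: on the % scale 0 is the no-effect control and ±100 the full control effect; nearly all actives have a fitted effect of over 50% in size; the assay follows cell death caused by Vpr and the record does not say whether a fall means rescue or toxicity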
#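 Fission yeast RE007 carrying one integrated HIV-1 vpr copy, seeded at OD 0.01 in PMG+AL medium with 23 nL pinned compound. Grown 24 h at 30 degrees; viability read by BacTiter-Glo luminescence after 5 min.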
# MARV entry inh: qHTS for inhibitors of binding or entry into cells for Marburg Virus; Potency, µM (titrated, usually from 37.8 µM), for inactives: top-dose activity change, negative = inhibition, most hits filed as inhibitors; 300,000 tested, 1.8% active; Marburg virus pseudotyped entry inhibition, cell reporter; control for the full effect not named in the record; about a third of the inactives were read at about 46 µM; AID 540276, 2011; active = well fitted inhibition curve with a large enough effect; inconclusive = small, poorly fitted or top-dose-only effect, or effect the other way; inactive = flat fitted curve, though single readings scatter; tested in HEK293 cells; about a fifth of its hits are not listed in these tables; further: on the % scale 0 is the no-effect control and ±100 the full control effect; luciferase read-out
# An asterisk follows results filed as active; ? = inconclusive; nt = no result given; & = joins results of further samples; [ ] = remark or other dose. Unless noted, the call rests on the fitted dose curve; in most records, active means well fitted curve in the direction sought with a large enough effect; inconclusive means small, poorly fitted or top-dose-only effect, or another doubt; inactive means no such curve, though single readings can be large; an effect the other way counts as inactive or inconclusive. Potency means the concentration at half of the fitted maximal effect.
SMILES,SARS PLpro yeast,NS1 inh,LASV entry inh,Cruzain inh Det,Cruzain inh noDet,StopGo reporter,RE007 growth inh,MARV entry inh
COc1ccc(C(=O)N2CCN(C3CCCCC3)CC2)c(OC)c1,-4%,?,-20%[14.3 µM],6.3%,1%,-4%,8%,?
Cc1nc2c(sc3nc4c(cc32)COC(C)(C)C4)c(=O)n1CC(=O)NCc1ccco1,-1%,-16%,0%,3.0%,?,47%[activator],12%,?
CCOc1ccc(C2C(C(=O)Nc3ccccc3)=C(C)Nc3nc(SCc4cc(C)ccc4C)nn32)cc1 (configuration not stated),nt,nt,6%[46.1 µM],1.7%,-11%,-12%,nt,nt
CCC(C)[C@H](NC(=O)NC(C)C)C(=O)O (some centres not stated),8%,6%,-33%,0.9%,3%,-8%,0%,0%
CCCC(CCC)c1nc2ccncc2[nH]1,1%,nt,-8%[46.1 µM],nt,nt,1%,-2%,?
COc1ccc(/C=C/C(=O)OCC(=O)NCCNC(=O)COC(=O)/C=C/c2ccc(OC)cc2)cc1,-3%,10%,-2%,nt,nt,-1%,-4%,0%
Cc1ccc(S(=O)(=O)N2CCCOC2CNC(=O)C(=O)NC2CCCCC2)cc1 (configuration not stated),0%,nt,14%,nt,nt,5%,2%,0%[46.1 µM]
COc1cc(O)c(C(CCN2CCOCC2)c2ccc(N(C)C)cc2)c(OC)c1 (configuration not stated),1%,-11%,nt,nt,nt,-1%,-18%,nt
O=C(CSc1nc(C(F)(F)F)cc(=O)[nH]1)Nc1cccc2ccccc12,0%,nt,14%[46.1 µM],nt,nt,-22%,3%,7%
CN1CCc2c(c(N3CCCCC3)nc3n[nH]c(N)c23)C1,3%,4%,12%,2.1%,-13%,11%,12%,8%&8%&8%
COc1cc(/C=N/n2cnnc2)ccc1OCCOc1ccccc1,3%,-13%,0%,0.0%,-9%,0%,18%,-12%
COc1cccc(CNC(=O)CSc2n[nH]c(-c3ccccc3Cl)n2)c1OC,nt,nt,0%[46.1 µM],1.5%,8%,-18%,nt,nt
OCCCCCN=c1cc(-c2ccccc2)oc2ccc(Cl)cc12,-1%,-12%,?,-7.6%,1%,12%,-10%,?
COc1cc(/C=N/NC(N)=O)ccc1OC(=O)c1ccco1,1%,nt,-12%[46.1 µM],nt,nt,0%,4%,?
COc1ccc(C(=O)Nc2nc(N3C(=O)c4ccccc4C3=O)n(-c3ccccc3)n2)cc1,-2%,7%,19%,0.4%,7%,-16%,1%,-7%
O=C(NCc1ccc(F)cc1)c1cc2cccc3c2n1CCS3,nt,nt,?,-8.5%,-1%,-17%,nt,nt
CCSc1ncc(Cl)c(C(=O)N(Cc2ccccc2Cl)C2CCS(=O)(=O)C2)n1 (configuration not stated),nt,nt,7%[46.1 µM],-4.9%,0%,?,nt,-11%[46.1 µM]
CCOc1ccc(NC(=O)CSC2=Nc3ccccc3C3=NC(CC(=O)NCc4ccccc4OC)C(=O)N23)cc1 (configuration not stated),nt,nt,?,3.2%,27%,-9%,nt,nt
Cn1c(=NC(=O)CSCC(=O)N2CCCCC2)sc2ccccc21,nt,-6%,-1%,4.6%,-3%,-15%,-2%,1%
CCOC(=O)C1=C(c2ccccc2)Nc2ncnn2C1c1ccc(OC)c(OC)c1OC (configuration not stated),1%,-4%,-15%,2.2%,3%,0%,5%,-24%
CCn1c2ccccc2c2nnc(SCC(=O)N(C)C3CCS(=O)(=O)C3)nc21 (configuration not stated),-3%,-1%,-2%,-4.4%,4%,-16%,nt,9%
CCC(=O)c1ccc(OCC(=O)OCC(=O)Nc2sccc2C(N)=O)cc1,-3%,nt,-2%[46.1 µM],nt,nt,-7%,20%,6%[46.1 µM]
CC(C)Cc1nnc(NC(=O)Cc2ccc([N+](=O)[O-])cc2)s1,-20%,0%,-6%,1.1%,?,-5%,-2%,14%
COc1ccccc1C(=O)NNC(=O)c1ccc(NC(=O)c2ccccc2)cc1,1%,6%,4%[46.1 µM],nt,nt,-6%,6%,14%[46.1 µM]
COC(=O)c1c(NC(=O)c2ccccc2[N+](=O)[O-])sc2c1CC(C)(C)NC2(C)C,-2%,3%,-2%,-12%,-12%,-15%,6%,?

# Random excerpt: five entries already listed.
SMILES,SARS PLpro yeast,NS1 inh,LASV entry inh,Cruzain inh Det,Cruzain inh noDet,StopGo reporter,RE007 growth inh,MARV entry inh
CCOC(=O)C1=C(c2ccccc2)Nc2ncnn2C1c1ccc(OC)c(OC)c1OC (configuration not stated),1%,-4%,-15%,2.2%,3%,0%,5%,-24%
COc1ccccc1C(=O)NNC(=O)c1ccc(NC(=O)c2ccccc2)cc1,1%,6%,4%[46.1 µM],nt,nt,-6%,6%,14%[46.1 µM]
COc1cccc(CNC(=O)CSc2n[nH]c(-c3ccccc3Cl)n2)c1OC,nt,nt,0%[46.1 µM],1.5%,8%,-18%,nt,nt
CCCC(CCC)c1nc2ccncc2[nH]1,1%,nt,-8%[46.1 µM],nt,nt,1%,-2%,?
CCOc1ccc(NC(=O)CSC2=Nc3ccccc3C3=NC(CC(=O)NCc4ccccc4OC)C(=O)N23)cc1 (configuration not stated),nt,nt,?,3.2%,27%,-9%,nt,nt

# Additional compounds follow.
SMILES,SARS PLpro yeast,NS1 inh,LASV entry inh,Cruzain inh Det,Cruzain inh noDet,StopGo reporter,RE007 growth inh,MARV entry inh
NC(=O)c1cc(C(=O)c2ccc(Cl)cc2Cl)c[nH]1,-2%,6%,6%,nt,nt,-2%,-5%,0%[46.1 µM]
CCn1c(=O)c(C(=O)NNC(=O)c2ccccc2Cl)c(O)c2ccccc21,-2%,-109%,?,nt,nt,-23%,-21%,1%[46.1 µM]
COC(=O)c1cc(=O)n(-c2ccc(F)cc2)c(=Nc2ccc(F)cc2)s1,-67%,-65%,-17%,-1.0%,?,22µM*,-13%,?
COc1ccc(-c2csc(NC(=S)NC(=O)c3ccccc3)n2)cc1Br,-1%,6%,3%,nt,nt,-12%,16%,6%
COCc1nnc(NC(=O)CC(c2ccccc2)c2ccccc2)s1,-1%,-14%,-1%,7.3%,?,0%,2%,0%
O=C(O)c1ccc2c(c1)S(=O)(=O)N=C1CCCCCN12,-11%,nt,19%[46.1 µM],nt,nt,15%,17%,6%[46.1 µM]
CCCOc1nnnn1-c1ccccc1,9%,?,18%,-1.1%,-6%,3%,-5%,15%
Cn1c(-c2ccc(CN3CCCCC3)o2)nc2ccccc21,0%,4%,?,-0.6%,12%,29%,-9%,-6%
OCCNCC(O)CN1c2ccccc2Sc2ccccc21 (configuration not stated),-2%,0%,-18%,nt,nt,?,3%,?
COc1ccc2nc(N3C(=O)CC(C(C)c4ccccc4)C3=O)sc2c1 (configuration not stated),11%,2%,4%,-7.1%,8%,13%,15%,4%
CCN1CCc2c(OCC(=O)Nc3ccc(C)cc3)cccc2C1=O,4%,1%,-1%,nt,nt,-26%,5%,13%
Cc1cc(NC(=O)COC(=O)[C@@H](NS(=O)(=O)c2ccc(Br)cc2)C(C)C)no1,2%,-3%,nt,nt,nt,9%,-6%,nt
CS(=O)(=O)N1CCN(c2ccccc2NC(=O)c2cccnc2)CC1,2%,1%,12%,4.7%,-7%,0%,7%,8%
COc1cc(C)c(Cl)cc1S(=O)(=O)N1CCCC1,-2%,3%,-7%[46.1 µM],nt,nt,-1%,3%,-12%[46.1 µM]
COc1ccccc1CNC(=O)CSc1ncc2c(n1)-c1ccc(Cl)cc1N(Cc1ccccc1)S2(=O)=O,nt,nt,27%[46.1 µM],1.5%,3%,-23%,nt,nt
CC(C)(C)n1cn[nH]c1=S,3%,-1%,4%[46.1 µM],nt,nt,22%,29%,?
O=C(Nc1ccc(OC(F)(F)F)cc1)c1ccc2ccccc2n1,-2%,-4%,29%[46.1 µM],nt,nt,-26%,-20%,-12%[46.1 µM]
COc1ccc2oc(=O)c(C(=O)O)cc2c1,2%,-59%,-1%,-1.2%,-7%,7%,-21%,6%
CC(CS(=O)(=O)c1ccc2c(c1)NC(=O)CS2)C(=O)NCc1ccccc1Cl (configuration not stated),3%,10%,0%[46.1 µM],nt,nt,4%,-7%,-6%[46.1 µM]
Cc1n[nH]c(=O)nc1NCc1ccc(Cl)cc1,4%,4%,-2%,-2.7%,-7%,9%,33%,-4%[46.1 µM]
CC(C)CNC(=O)c1c(-c2ccccc2)c(-c2ccccc2)nn(C)c1=O,nt,nt,-7%[46.1 µM],0.1%,1%,-15%,nt,3%[46.1 µM]
Cc1c(C(=O)NCc2ccc3c(c2)OCO3)sc2nc(-c3ccc(F)cc3)cn12,4%,-19%,nt,-6.9%,16%,-5%,-14%,nt
CC(Oc1ccc(Cl)cc1)C(=O)NCCN1C(=O)S/C(=C\c2cccnc2)C1=O (configuration not stated),-13%,-1%,?,-15%,?,40µM*,-4%,?
Cc1ccc(C2CC(=O)NC(SCc3ccccc3)=C2C#N)cc1 (configuration not stated),-7%,-28%,-7%,-6.8%,-16%,0%,-1%,?
O=C(Cn1nc(-c2ccccc2)ccc1=O)NCCN1CCN(Cc2ccccc2)CC1,-4%,4%,18%,10%,-8%,nt,-14%,10%
Cc1ccc(SCC(=O)NCCN2C(=O)CSC2=O)cc1C,2%,1%,?,4.3%,-5%,28%,-7%,28%
O=c1c(Cc2ccc(F)cc2)c(O)ccn1C1CC1,-8%,-1%,8%,-0.5%,15%,-16%,8%,?
CCN(CC)C(C(=O)Nc1ccc2c(c1)OCO2)c1ccccc1 (configuration not stated),19%,-28%,5%,-1.6%,3%,-19%,2%,-2%
CC(=O)Nc1cc2c(cc1NC(=O)Cn1nc(-c3ccc4c(c3)OCCO4)ccc1=O)OCCO2,8%,19%,-3%,-5.3%,22%,?,-6%,-21%

# An unsorted share of the library; 4.5% or so of the library scored in one or more.
